VACV mCherry inh: inhibitors of vaccinia virus infection (mCherry reporter signal); Vaccinia virus mCherry reporter infection, fluorescence; about a quarter of the inactives have no number; AID 720579; Potency, µM (titrated, usually from 36.5 µM), inactives show at the highest dose activity change, negative = inhibition, most hits filed as inhibitors; hit rate 0.63% among 310,000; active = well fitted inhibition curve with a large enough effect; inconclusive = small, poorly fitted or top-dose-only effect; inactive = no such curve, though single readings can be large or run the other way; tested in A549 cells; further: nearly all actives have a fitted effect of over 35% in size; inactives centre near -10
VACV Venus inh: vaccinia inhibition (Venus reporter); Vaccinia virus Venus reporter expression, fluorescence; Potency, µM (highest dose often 36.5 µM), for the others: at the top dose activity change, negative = inhibition, actives largely listed as inhibitors; hit rate 0.46% among 330,000; AID 720580; active means well fitted inhibition curve with a large enough effect; inconclusive means small, poorly fitted or top-dose-only effect; inactive means no such curve, though single readings can be large or run the other way; tested in A549 cells; further: nearly all actives have a fitted effect of over 30% in size; inactives centre near -10
* hit, by the source's call; i = inactive; ? = inconclusive; nt = not tested or not shown; & = joins results of further samples; [ ] = dose if it differs, or a comment. On the % scale 0 is the no-effect control and ±100 the full control effect; potency means the concentration at half of the fitted maximal effect.

Preview, three compounds:
SMILES	VACV mCherry inh	VACV Venus inh
Cc1cccn2c(=O)c3cc(C(=O)NC4CCCC4)c(=N)n(CC4CCCO4)c3nc12 (configuration not stated)	-8.4%	-5.0%
Cc1ccc(NC(=O)CSCC(=O)N(C)CC(=O)Nc2cccc3ccccc23)cc1	-10.3%	-5.0%
CCCCNC(=O)CCn1c(=O)c2cccn2c2cccnc21	-14.1%	-8.4%

Main list (from the top)
SMILES	VACV mCherry inh	VACV Venus inh
Cc1cccn2c(=O)c3cc(C(=O)NC4CCCC4)c(=N)n(CC4CCCO4)c3nc12 (configuration not stated)	-8.4%	-5.0%
Cc1ccc(NC(=O)CSCC(=O)N(C)CC(=O)Nc2cccc3ccccc23)cc1	-10.3%	-5.0%
CCCCNC(=O)CCn1c(=O)c2cccn2c2cccnc21	-14.1%	-8.4%
CCC(=O)N1CCc2cc(Br)cc(S(=O)(=O)N3CCN(c4ccccc4OC)CC3)c21	-8.5%	-7.3%
COc1ccc(C2/C=C\CN(C(=O)c3ccc(C)cc3)CC(=O)N2Cc2ccc(F)cc2)cc1 (configuration not stated)	-28.1%	-11.2%
COc1ccc(Nc2c(-c3ccc(F)cc3)nc3nc(C)cc(C)n23)cc1	0.8%	3.2%
O=C(Nc1c[nH]c(=O)[nH]c1=O)c1ccc([N+](=O)[O-])cc1	-12.5%	-6.4%
CCOC(=O)c1ccc(Nc2nc(C)cc(=O)[nH]2)cc1	-4.3%	-6.1%
CCCn1c2ccccc2c2cnn(CC(=O)Nc3cc(OC)c(OC)c(OC)c3)c(=O)c21	-8.7%	-3.1%
CCC(c1nnnn1-c1ccc2c(c1)OCCO2)N1CCN(c2cc(C)ccc2C)CC1 (configuration not stated)	-12.7%	-9.4%
CCN(C(=O)CSc1nnc2ccccn12)C1CCS(=O)(=O)C1 (configuration not stated)	-17.3%	-12.0%
O=C(O)C(Cc1ccccc1)N1C(=O)C=CC1=O (configuration not stated)	-11.5%	0.8%
CCc1nn(-c2cc(Cl)ccc2OC)c2c1C(=O)CCC2	?	?
CC(=O)Oc1c(-c2ccco2)oc2ccccc2c1=O	-25.3%	-16.6%
CCOC(=O)N1CCC(NC(=O)CCC(=O)c2ccccc2)CC1	-13.0%	-2.3%
COc1ccc(NC(=S)NNC(=O)Cn2nc(C(F)F)cc2C(F)F)cc1	i	-10.8%
CCN(CC)CCNCc1nc2ccccc2c(=O)n1-c1ccc(F)cc1	-7.8%	-11.2%
Cc1cccc(OC(=O)c2ccc3nccnc3c2)c1	-8.7%	-11.2%
CN(Cc1ccccc1)S(=O)(=O)c1ccc(Cl)c(C(=O)NCc2ccc3c(c2)OCO3)c1	-7.2%	-9.1%
CCOC(=O)Nc1ccc2c(c1)N(C(=O)CN(C)C)c1ccccc1CC2	-11.7%	-10.8%
O=C1OCC2=C1C(c1ccc(F)cc1)c1cc3c(cc1N2)OCO3 (configuration not stated)	?	?
CCc1c(C)nc2c(-c3ccccc3)c[nH]n2c1=O	-26.5%	-18.1%
C=CCn1c(O)c(C=Nc2ccc(F)cc2)c(=O)[nH]c1=O	i	-5.0%
COc1ccc(CCC(=O)NNC(=O)c2cc(Cl)ccc2OC)cc1OC	-4.4%	9.5%
COc1cccc(OC)c1C(=O)Nc1cc(C)on1	i	-13.7%

Reformatted with values under each structure: part of the list above.
Fields: VACV mCherry inh	VACV Venus inh
CCN(CC)CCNCc1nc2ccccc2c(=O)n1-c1ccc(F)cc1
→ -7.8%	-11.2%
Cc1cccc(OC(=O)c2ccc3nccnc3c2)c1
→ -8.7%	-11.2%
CN(Cc1ccccc1)S(=O)(=O)c1ccc(Cl)c(C(=O)NCc2ccc3c(c2)OCO3)c1
→ -7.2%	-9.1%
CCOC(=O)Nc1ccc2c(c1)N(C(=O)CN(C)C)c1ccccc1CC2
→ -11.7%	-10.8%

More records:
SMILES	VACV mCherry inh	VACV Venus inh
COc1ccc(Cn2ccnc2SCC(=O)Nc2ccc(C)cc2C)cc1	i	-10.7%
CN(C)C=Nc1ncc2c([nH]c3ccccc32)c1C#N	-16.2%	?
CC(CC(=O)Nc1ccc(Cl)c(S(=O)(=O)N2CCOCC2)c1)c1ccccc1 (configuration not stated)	-13.7%	?
OC1(Cc2ccn[nH]2)CCCCC1	-22.2%	-8.2%
Cc1[nH]c(C)c(S(=O)(=O)NCc2ccco2)c1C(=O)N1CCCCC1	-13.5%	-1.1%
O=C(NC(=O)c1c(Cl)cccc1Cl)Nc1ccc(Oc2cccnc2)nc1	-29.3%	-18.3%
Oc1ccc(/C=N/n2c3ccccc3c3ccccc32)cc1	nt	?
CCOc1cc(N2CCOCC2)c(OCC)cc1NC(=O)CCC1CCCC1	i	-11.5%
CCC(c1nnnn1Cc1ccc(F)cc1)N1CCN(C)CC1 (configuration not stated)	-3.4%	-2.3%
O=C(NCc1ccc(F)cc1)c1ccc(CS(=O)(=O)Cc2ccc(F)cc2)o1	nt	-12.8%
COc1ccc(NS(=O)(=O)c2cccc(-c3nnc4n3CCCCC4)c2)cc1	nt	2.0%
O=c1c(Cl)c(N2CCN(S(=O)(=O)c3ccccc3)CC2)cnn1-c1ccccc1	i	-0.7%
Cc1ccc(C)c(NC(=O)COc2coc(CN3CCc4ccccc43)cc2=O)c1	-17.4%	-18.7%
CN1CCN(C(=O)c2ccc3c(=O)n(CCc4ccccc4)c(=S)[nH]c3c2)CC1	i	-14.6%
CCOc1ccc(-c2nc(-c3cccnc3)no2)cc1	-13.1%	-6.2%
Cc1ccc2nc(N(CCN3CCOCC3)C(=O)CCS(=O)(=O)c3ccccc3)sc2c1	i	-17.2%
CCCOc1ccc(C(=O)Nc2cc(S(=O)(=O)N3CCOCC3)ccc2N2CCN(CC)CC2)cc1OC	3.9%	-9.4%
Cc1cccc(N(C(=O)CCC(=O)Nc2ccccn2)C(C(=O)NC(C)C)c2ccc(F)cc2)c1 (configuration not stated)	-10.0%	4.2%
Cc1ccc([C@@H]2[C@@H]3C(=O)N(C)C(=O)[C@@H]3[C@]3(Cc4ccccc4)C(=O)N(Cc4ccccn4)CC(=O)N23)o1	?	-6.9%
Cc1cccc(NC(=O)c2cc3c(=O)n4cccc(C)c4nc3s2)c1C	-12.4%	-15.7%
CC1CCCC(C)N1CC(O)COCC1COc2ccccc2O1 (configuration not stated)	nt	?
CC1CN=C(N(C(=O)Nc2ccccc2)c2ccc(S(=O)(=O)N3CCOCC3)cc2)S1 (configuration not stated)	nt	-10.1%
Cc1ccc(CN(Cc2ccco2)C(=O)COc2ccc(C)c(C)c2)cc1	1.1%	4.6%
O=C(COC(=O)c1cn(-c2ccccc2)nc1-c1cccnc1)NC1CC1	i	-10.3%
c1coc(-c2ccc3nncn3c2)c1	i	7.4%

Additional records:
SMILES	VACV mCherry inh	VACV Venus inh
CCOC(=O)C1C(C)C(C(C)(C)C)N(S(=O)(=O)c2ccc(C)cc2)C1c1ccccc1 (configuration not stated)	-9.9%	-24.5%
Cc1ccc(Nc2ncnc3sc(C)c(C)c23)cc1	-29.7%	-13.7%
CCOC(=O)N1CCN(CCC(=O)c2ccc(Cl)cc2)CC1	nt	-15.4%
COCCNc1oc(-c2ccccc2)nc1S(=O)(=O)c1ccc(Br)cc1	-4.8%	0.0%
Cc1ccc(S(=O)(=O)N2CCOCC2)c(C)c1-n1cnnn1	i	-7.3%
Cc1ccc(N(C)C(=O)CN2C(=O)CCc3cc(S(=O)(=O)N4CCOCC4)ccc32)cc1	-6.1%	-1.4%
Cc1[nH]c2ccc(C(=O)OC(C)C(=O)NCc3ccccc3)cc2c1C (configuration not stated)	?	-23.8%
COCCCNC(=O)C1CCN(c2nn3cc(-c4ccc(F)cc4)nc3s2)CC1	-20.8%	-18.4%
CC(=O)NC(Cc1c[nH]c2ccccc12)C(=O)N1CCN(S(=O)(=O)c2ccccc2)CC1 (configuration not stated)	-21.8%	-11.7%
CC1CCCCN1C(=O)CSc1nc2ccccc2nc1Cc1ccc(Cl)cc1 (configuration not stated)	-19.5%	-3.6%
O=C(Nc1ccc(Cl)c(Cl)c1)C1C2C=CC3(O2)C1C(=O)N(CCN1CCCCC1)C3C(=O)NC1CCCCC1 (configuration not stated)	-7.0%	-19.3%
Nc1nc(CSC(=S)N2CCOCC2)nc(Nc2ccc(F)cc2)n1	i	-14.3%
CC(C)C[C@H]1CN=C(N(C)C)N1CCCCc1ccccc1	i	-29.4%
O=C(CCC(=O)NNC(=O)COc1ccc(Br)cc1Br)NCc1ccccc1	2.1%	1.4%
Cc1ccc(C(=O)Nc2cccnc2)cc1S(=O)(=O)N1CCCCC1	-15.9%	-17.0%
O=C(NCC(c1ccco1)S(=O)(=O)c1ccc(Cl)cc1)c1ccc(C(F)(F)F)cc1 (configuration not stated)	-9.4%	-15.3%
CCOC(=O)C[C@H]1c2ccccc2S(=O)(=O)N1c1cccc(OC)c1	-12.1%&-18.6%	-3.2%&-2.3%
NS(=O)(=O)c1ccc(CNC(=O)/C=C/c2ccc(Cl)c(Cl)c2)cc1	-8.1%	-10.1%
CCOC(=O)c1ccc2c(c1)NC(=O)C(N1CCN(c3ccc(OC)cc3)CC1)S2 (configuration not stated)	i	-13.9%
COc1ccc(S(=O)(=O)NC(=O)C2(C)CCN2C(=O)C2(c3ccccc3)CCCC2)cc1 (configuration not stated)	4.8%	7.6%
COc1ccc(N2CCN(c3c4c(nc5nncn35)CCC4)CC2)cc1	i	?
COc1ccc(NC(C)C(=O)N2CCN(Cc3ccccc3)CC2)cc1 (configuration not stated)	?	-6.4%
COc1cccc(C(=O)Nc2cc(OC)ccc2NC(=O)c2ccco2)c1	i	-13.0%
CC(C)Oc1cccc(C(=O)C2CCCN(Cc3cnc(N4CCCC4)s3)C2)c1 (configuration not stated)	i	-8.4%
COc1ccc(CC(=O)NCc2ccc3c(c2)CCN3C(C)=O)cc1OC	-10.2%	-9.0%

An excerpt of these results, bar-delimited.
Structure | VACV mCherry inh | VACV Venus inh
COCCNc1oc(-c2ccccc2)nc1S(=O)(=O)c1ccc(Br)cc1 | -4.8% | 0.0%
Cc1ccc(N(C)C(=O)CN2C(=O)CCc3cc(S(=O)(=O)N4CCOCC4)ccc32)cc1 | -6.1% | -1.4%
CCOC(=O)N1CCN(CCC(=O)c2ccc(Cl)cc2)CC1 | nt | -15.4%

(list continues)
SMILES	VACV mCherry inh	VACV Venus inh
CCc1ccc(N2CC34C=CC(O3)C(C(=O)OC(C)C)C4C2=O)cc1 (configuration not stated)	-0.2%	-0.6%
O=C(COC(=O)CNS(=O)(=O)c1ccc(F)c(F)c1F)NC1CC1	-12.4%	-3.9%
CC(=O)N1CN(S(=O)(=O)c2ccc(C)cc2)CC1C (configuration not stated)	i	4.0%
O=C(CSc1nc2ccccc2c(=O)n1CCCO)N1CCc2ccccc21	i	-14.3%
COc1ccc(-c2csc3ncnc(N4CCN(S(=O)(=O)c5cccc(F)c5)CC4)c23)cc1	-22.0%	-19.2%
CN(C)C(=O)CN1C(=O)NC(c2ccccc2)(c2ccccc2)C1=O	-7.0%	-1.1%
Cc1ccc(CNC(=O)c2ccc(CSCc3ccc(Cl)cc3)o2)cc1	-9.8%	-8.5%
Cc1ccc(S(=O)(=O)Nc2cc3c4c(c2)CCC(=O)N4CCC3)cc1	i	-11.8%
CCOC(=O)c1nn(-c2ccc(OC)cc2)c(=O)c2c(N)scc12	-10.7%	-9.1%
CC(C)c1ccc(OCC(=O)Nc2ccc(S(=O)(=O)Nc3ccccn3)cc2)cc1	-8.2%	-10.4%
Nc1ccc2nc(SCc3ccccc3F)sc2c1	-19.6%[7.34 µM]	-15.1%[7.34 µM]
Nc1ncnc2c1ncn2[C@@H]1O[C@H](CNC(=O)[C@@H](N)Cc2ccc(C(F)(F)F)cc2)[C@@H](O)[C@H]1O	-13.6%	6.6%
COc1ccc(Cl)cc1C(=O)NCCCSc1ccccc1	-5.0%	-3.2%
CSC1=NCCN1C(=O)C12CC3CC(CC(C3)C1)C2	-27.4%	-29.1%
CC(C)(C)c1nc(-c2ccccc2)nc2c1OCCC2	i	-5.2%
CCC1CCCCN1C(=O)CCS(=O)(=O)c1cc2c(cc1C)NC(=O)CO2 (configuration not stated)	5.1%	2.1%
Cc1nc(COc2ccc(C(=O)Nc3ccccc3N3CCOCC3)cc2)cs1	-9.4%	-12.8%
Cc1ccc(S(=O)(=O)N2CCN(S(C)(=O)=O)C2C)cc1 (configuration not stated)	-10.3%	2.1%
CN(C)C(=O)C[n+]1cccc(/C=N/O)c1	i	-4.9%
CC1=C([N+](=O)[O-])C(c2ccccc2C(F)(F)F)NC(=O)N1C (configuration not stated)	i	-11.4%
Cc1ccc(SCC(=O)OCC(=O)NCC2CCCCC2)cc1C	-0.5%	-6.6%
C=C(C)Cn1c(-c2cccs2)n[nH]c1=S	-15.1%	-4.9%
O=C(O)CSc1c2c(nc3cc(C(=O)Nc4cccc(C(F)(F)F)c4)ccc13)CCC2	-13.0%[7.34 µM]	0.5%[7.34 µM]
CCOC(=O)c1ccc(NC(=O)CSc2nc(C)cc(=O)[nH]2)cc1	-21.8%	-11.9%
NCCc1ccccc1	5.3%&-22.5%	-7.3%&-16.0%
CCOC(=O)c1sc2ccccc2c1S(=O)(=O)N1CCN(c2cccc(C)c2C)CC1	-9.3%	-3.4%
COc1ccc(-c2csc(NC(=O)CSc3nnc(Nc4ccccc4C)s3)n2)cc1	?	-21.5%
N/C(=N\OC(=O)c1cccc2ccccc12)c1ccccn1	-4.7%[7.34 µM]	-2.3%[7.34 µM]
COc1ccccc1NC(=O)N1c2ccccc2NC(=O)CC1C (configuration not stated)	-12.7%	-9.6%
CCNC(=S)N1CCN(CC(=O)Nc2ccc(Br)cc2)CC1	-4.5%	-12.4%

Screens deposited in PubChem by National Center for Advancing Translational Sciences (NCATS).
